KCNQ2 block – KCNQ2 potassium channel inhibitors, primary screen, cell-based, CHO-K1, FluxOR thallium flux, B-score (AID 2156); O88943; hit rate 1.1% among 310,000; 20 min; stronger effect = lower value; only compounds with negative scores are shown here; some inactives read as strong as hits; B-score at 10 µM;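 active means fluorescence ratio B-score at most minus 3 library SDs, with starting brightness B-score within 2 library SDs, cut at about -5.5 in these data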
Target sequence (O88943 whole entry, looked up): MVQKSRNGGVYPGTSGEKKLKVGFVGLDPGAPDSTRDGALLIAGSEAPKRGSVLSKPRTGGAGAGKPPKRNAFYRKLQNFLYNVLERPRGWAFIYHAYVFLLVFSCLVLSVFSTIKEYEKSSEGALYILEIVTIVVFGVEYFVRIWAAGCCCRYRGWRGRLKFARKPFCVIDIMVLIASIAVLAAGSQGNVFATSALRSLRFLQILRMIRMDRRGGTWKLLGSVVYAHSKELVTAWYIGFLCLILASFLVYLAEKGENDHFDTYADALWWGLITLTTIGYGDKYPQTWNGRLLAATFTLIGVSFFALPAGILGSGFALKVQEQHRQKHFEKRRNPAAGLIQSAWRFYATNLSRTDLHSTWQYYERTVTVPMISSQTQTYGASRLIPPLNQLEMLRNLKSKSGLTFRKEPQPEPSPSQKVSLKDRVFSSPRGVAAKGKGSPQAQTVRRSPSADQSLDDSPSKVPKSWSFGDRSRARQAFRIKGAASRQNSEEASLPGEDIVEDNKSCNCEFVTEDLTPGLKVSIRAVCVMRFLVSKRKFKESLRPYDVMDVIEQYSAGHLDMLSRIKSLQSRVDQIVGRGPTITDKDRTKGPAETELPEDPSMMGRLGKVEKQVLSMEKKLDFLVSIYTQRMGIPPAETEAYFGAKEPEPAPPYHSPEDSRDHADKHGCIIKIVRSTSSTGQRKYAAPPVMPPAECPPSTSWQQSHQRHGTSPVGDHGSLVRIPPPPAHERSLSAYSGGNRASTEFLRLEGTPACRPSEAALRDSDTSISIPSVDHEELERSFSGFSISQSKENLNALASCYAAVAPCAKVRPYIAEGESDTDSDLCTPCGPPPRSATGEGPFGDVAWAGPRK
KCNQ2 block baseline – also measured in KCNQ2 block; calls as there; B-score; measured here: initial fluorescence intensity artifact check;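 brightness before thallium and not channel activity; 0 = typical well and far values either way flag optical interference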
An asterisk follows results filed as active; i = inactive.

Start of the data: the first 6 compounds, to show the layout:
KCNQ2 block | KCNQ2 block baseline | mol
i | -2.4 | Cc1cccc(N2CCN(C(=S)NCc3ccco3)CC2)c1C
i | 2.4 | COc1ccc(NC(=O)CSc2nc(C)c3c(c2C#N)CCCC3)cc1
i | 1.6 | CCCOc1ccc(-c2nn(-c3ccccc3)cc2/C=C2\SC(N)=NC2=O)cc1C
i | -0.83 | CCC1Oc2ccccc2N(CC(=O)N2CCOCC2)C1=O (configuration not stated)
i | 0.02 | O=C(c1cn(-c2ccccc2)nc1-c1ccccc1)n1nnc2ccccc21
i | 0.74 | COc1ccc(C(=O)NCC(=O)OCC(=O)Nc2c(C)n(C)n(-c3ccccc3)c2=O)cc1

The whole of this part, previewed entries included:
KCNQ2 block | KCNQ2 block baseline | mol
i | -2.4 | Cc1cccc(N2CCN(C(=S)NCc3ccco3)CC2)c1C
i | 2.4 | COc1ccc(NC(=O)CSc2nc(C)c3c(c2C#N)CCCC3)cc1
i | 1.6 | CCCOc1ccc(-c2nn(-c3ccccc3)cc2/C=C2\SC(N)=NC2=O)cc1C
i | -0.83 | CCC1Oc2ccccc2N(CC(=O)N2CCOCC2)C1=O (configuration not stated)
i | 0.02 | O=C(c1cn(-c2ccccc2)nc1-c1ccccc1)n1nnc2ccccc21
i | 0.74 | COc1ccc(C(=O)NCC(=O)OCC(=O)Nc2c(C)n(C)n(-c3ccccc3)c2=O)cc1
i | -0.23 | COc1ccccc1N(C)S(=O)(=O)c1ccc(C(=O)OCC(N)=O)cc1
i | 0.5 | COC(=O)c1cc(NC(=O)CSc2nc(C)cc(=O)[nH]2)cc(C(=O)OC)c1
i | 1.8 | CCOC(=O)C1CCN(C(=O)C(=O)N2CCC(C(=O)OCC)CC2)CC1
i | -0.21 | Cc1nc(Nc2ccccc2)c2oc3ccc(Cl)cc3c2n1
i | -0.1 | Cc1ccc(C)c(S(=O)(=O)N2CCCOC2CNC(=O)C(=O)NC2CC2)c1 (configuration not stated)
i | 0.07 | CCNC(=O)NC(=O)COc1ccccc1C#N
i | -1.9 | NC(=O)C1CCCN(Cc2c(C(=O)N3CCc4ccccc4C3)nc3ccc(Cl)cn23)C1 (configuration not stated)
i | -1.1 | Cc1csc(=N)n1-c1ccc(Cl)cc1
i | 0.01 | CCCCNC(=S)N1CCN(C(c2ccccc2)c2ccccc2)CC1
i | 0.15 | CC(=O)N1c2ccccc2NC2=C(C(=O)CC(C)(C)C2)C1c1cccn1C (configuration not stated)
i | -0.15 | Cc1nn2c(nc1=O)NNC2(C)C(C)(C)C (configuration not stated)
i | 0.01 | CCn1c(COc2ccccc2)nnc1SCC(=O)NC1CC1
i | -2.3 | Cc1ccc(N2C(=O)CC(Cn3nc(C)cc3C)C2=O)cc1 (configuration not stated)
i | 0.13 | O=C(NCCCc1ccncc1)C1CCC(=O)N(Cc2cccc(C(F)(F)F)c2)C1 (configuration not stated)
i | 0.69 | O=S(=O)(NCc1nnc2c(C(F)(F)F)cc(Cl)cn12)c1ccccc1
i | 0.02 | CSc1ccccc1NC(=O)c1noc2c1CCC2
i | -0.88 | Cc1ccc(C(=O)Nc2nc(=O)[nH]s2)cc1
i | 0.4 | Cc1ccc2c(CC(=O)NNC(=O)c3ccccc3O)coc2c1
i | -0.86 | CC(=O)C1=C(O)C(=O)N(Cc2ccco2)C1c1ccc2c(c1)OCO2 (configuration not stated)
i | 0.2 | CCOC(=O)C1CCN(Cc2cnc(Oc3ccc(C(C)(C)C)cc3)s2)CC1
i | 1.5 | O=C(Cn1cc([N+](=O)[O-])cn1)NCCc1nc2ccccc2[nH]1
i | -0.05 | Cc1cccc(-n2c(O)c(C=NC3CCS(=O)(=O)C3)c3ccccc3c2=O)c1C (configuration not stated)
i | 0.59 | CC1=CC(C)(C)Nc2ccc(OC(=O)c3cccnc3)cc21
i | -0.93 | O=C(Cn1cnc2ccccc21)N/N=C/C(Br)=C/c1ccccc1
i | -0.06 | O=C1CC(N2CCN(c3nc4ccccc4s3)CC2)C(=O)N1Cc1cccs1 (configuration not stated)
i | 0.76 | CC1=C(C)Cc2c(OC(=O)c3ccccc3)ccc(OC(=O)c3ccccc3)c2C1
i | -1.4 | CCc1ccc2c(c1)C1(NN=C(c3ccc(C)cc3)S1)C(=O)N2 (configuration not stated)
i | 0.29 | COc1ccc(/C=C/C(=O)Nc2cc(F)ccc2C)cc1S(=O)(=O)N1CCOCC1
i | -2.2 | O=C(c1ccc2c(c1)N(Cc1ccccc1)C(=O)c1ccccc1S2)N1CCCC1
-6.4* | -0.51* | CCN(CC)S(=O)(=O)c1ccc(N2CCCCC2)c(NC(=O)/C=C/c2cc(OC)c(OC)c(OC)c2)c1
i | -1.2 | CCCc1ccc(C2C3=C(CC(C)(C)CC3=O)NC3=C2C(=O)c2ccccc23)cc1 (configuration not stated)
i | -0.35 | O=C1C=C(c2cccc(O)c2)CCC1
i | 0.82 | COc1ccc(CC(NC(C)=O)C(=O)NC2CCN(c3nc(C)cc(C)c3C#N)CC2)cc1OC (configuration not stated)
i | -0.84 | CN(NS(=O)(=O)c1ccccc1)c1nc2ccccc2nc1C(F)(F)F
i | 1.8 | CC(C)C[C@@H](COc1ccccc1)N1CCN(Cc2ccccc2)CCC1=O
i | -0.09 | CN(C)C1(CNC(=O)C2CCN(S(=O)(=O)c3c(Cl)cccc3Cl)CC2)CCCCC1
i | -1.8 | O=C1/C(=C/c2ccncc2)Oc2cc(OS(=O)(=O)c3ccccc3)ccc21
i | 0.36 | Clc1ccc(N2CCN(Cc3ccc(Br)o3)CC2)cc1
i | -1.3 | NC(=O)C1CCN(C(=O)CCNS(=O)(=O)c2cc(Br)cnc2N)CC1
i | 0.19 | O=C(CSc1nnc(CNC(=O)c2ccccc2)o1)Nc1nccs1
i | -0.02 | O=C(Nc1ccccc1Br)C1CCC(=O)N1Cc1ccccc1Cl (configuration not stated)
i | 0.03 | COc1ccc(NC(C)=O)cc1C#N
i | 0.39 | COc1ccc(NC2CCCN(C(=O)c3csc(C)n3)C2)cc1 (configuration not stated)
i | -0.8 | C=CCNC(=O)COC(=O)c1ccccc1C(=O)N(C)C1CCCCC1
i | -1.5 | S=C(Nc1ccccc1Cl)N(Cc1cccnc1)Cc1ccco1
i | 0.02 | Cc1ccc(C(=O)OCC(=O)c2ccc(S(=O)(=O)N3CCCCC3)cc2)o1
i | -0.84 | COc1ccccc1N1CCN(C(=O)C(=O)c2cn(CC(=O)N3CCCCCC3)c3ccccc23)CC1
i | -0.4 | CC(C)c1nc(C(N)=O)c2[nH]c(=O)n(-c3ccc(F)cc3)c2n1
i | -0.22 | Cc1cccc(CSc2nnc(CCCCCNC(=O)OC(C)(C)C)o2)c1
i | 0.39 | COc1ccc(/C=N/n2c(-c3ccccc3)n[nH]c2=S)cc1
i | -0.37 | CCOC(=O)N1CCN(C(=O)c2cccn3c(=O)c4cc(Br)ccc4nc23)CC1
i | 1.3 | Fc1ccc(-c2nc3c(Cl)cc(C(F)(F)F)cn3c2Cl)cc1
i | -0.89 | O=C1c2ccc3c4c(ccc(c24)C(=O)N1CCCCO)C(=O)N(CCCCO)C3=O
i | -0.31 | O=C(COC(=O)c1c2c(nc3ccccc13)CCCC2)c1cccs1

Further entries
KCNQ2 block | KCNQ2 block baseline | mol
i | -0.01 | CC(NC(=O)CCSCc1ccccc1F)c1ccccc1 (configuration not stated)
i | -3.1 | Cc1cc(C)c(NC(=O)CN2C(=O)NC3(CCOc4ccccc43)C2=O)c(C)c1 (configuration not stated)
i | -0.26 | O=C(COC(=O)c1ccccc1Br)NCCC1=CCCCC1
i | -1.9 | CCN1CCN(c2ccc(S(=O)(=O)N3CCCCC3)cc2NC(=O)COc2ccc(F)cc2Cl)CC1
i | 0.4 | CCCc1nn(C)c2c1C(c1ccncc1)C(C#N)=C(N)O2 (configuration not stated)
i | -1.3 | COC(=O)Cc1c(O)ccn(CCc2c[nH]c3ccccc23)c1=O
i | 1.1 | COC(=O)C1=C[C@@H](C(=O)OC)[C@@H]2C3=C(C(=O)[C@@]2(C)NC(=O)c2ccccc2)[C@H](c2ccccc2)[C@@H]2C(=O)NC(=O)[C@@H]2[C@@H]3C1
i | -1.1 | CCOc1ccc(S(=O)(=O)N(C)c2ccc(OCC(=O)NCc3ccc(C(=O)OC)cc3)cc2)cc1
i | -0.17 | Cc1ccc(C)c(N2CCN(C(=O)CCCCn3c(=O)[nH]c4ccccc4c3=O)CC2)c1
i | -1 | CSc1cccc(NC(=O)CCCOc2ccc(Cl)cc2Cl)c1
i | -0.84 | CC(C)(C)c1cc[n+](/C(C(=S)NC2CC2)=C(/[O-])c2ccc(Cl)s2)cc1
i | -0.77 | COc1ccccc1CNS(=O)(=O)c1ccc2c(c1)N(C(C)=O)CCO2
i | -0.03 | CCOC(=O)c1c(C)nc2sc(C(=O)Nc3ccccc3)c(N)c2c1-c1ccc(OC)cc1
i | 1.9 | CCOC(=O)C(NCCOC)(NC(C)=O)C(F)(F)F (configuration not stated)
i | -0.46 | O=C(CCN1C(=O)S/C(=C/c2ccc(F)cc2)C1=O)Nc1ccc(O)c(C(=O)O)c1
i | 0.04 | Cc1ccc(NC(=O)Cn2nnc(-c3ccccc3NC(=O)c3cccs3)n2)cc1
i | 0.92 | COc1ccc(N2CCN(CCNC(=O)C3CC(=O)N(C4CCCC4)C3)CC2)cc1 (configuration not stated)
i | 0.02 | COCCNC(=O)c1cc2c(=O)n3cccc(C)c3nc2n1C
i | -1.3 | CC(C)(C)NC(=O)C(c1ccc(O)cc1)N(Cc1ccco1)C(=O)CCC(=O)Nc1ccccn1 (configuration not stated)
-9.6* | 0.07* | Cc1nc(N2CCN(Cc3ccccc3)CC2)nc2c1C(=O)CC(c1ccco1)C2 (configuration not stated)
i | 0.28 | Cc1ccc(C)c(NC(=O)C(CC(=O)O)C2CCCO2)c1 (configuration not stated)
i | -0.12 | COc1ccc(-c2cc(C(=O)N(C)Cc3ccccc3)no2)cc1OC
i | -0.79 | COc1ccc(CNC(=O)c2cccc(N(C)C)c2)cc1
i | 0.05 | Cc1csc(=O)n1CCC(=O)OCC(=O)Nc1cccc(C#N)c1
i | 11 | O=c1cc(CN2CCCc3ccccc32)nc2sccn12
i | -0.41 | NS(=O)(=O)c1ccc(NC(=O)COC(=O)COc2cccc(C(F)(F)F)c2)cc1
i | 1.1 | Cc1cccc(OCCCOc2cccc3cccnc23)c1C
i | 0.03 | CCOc1ccc(N2C(=O)/C(=C/c3cc(OC)c(OC)c(OC)c3)N(CC(=O)OC)C2=S)cc1
i | -1.5 | COc1cc(C(C[N+](=O)[O-])c2c(N)n(C)c(=O)n(C)c2=O)ccc1O (configuration not stated)
i | -0.04 | Cc1cc(C(=O)Nc2sc3c(c2C#N)CCC(C)C3)cs1 (configuration not stated)
i | -0.18 | O=C(CNC(=O)c1ccco1)NCC(=O)OCc1ccccc1Cl
i | 1.2 | CN1CCN(c2nc3c(c(=O)[nH]c(=O)n3C)n2Cc2cccc(Br)c2)CC1
-5.9* | 2* | COc1cc(-c2nnc(SC/C=C/c3ccccc3)n2N)cc(OC)c1OC
i | 0.11 | CC1(C)CC(=O)C(=Cc2cn(-c3ccccc3)nc2-c2ccccc2)C(=O)C1
i | 2.9 | C[N+](C)(C)CCCCCCC(=O)/C=N/O
i | -1.4 | Cc1cccc(/C=C2\Sc3ccc(C(=O)N4CCOCC4)cc3N(C)C2=O)c1
i | 0.72 | COc1cccc(OCC(Cn2cnc3ccccc32)OC(C)=O)c1 (configuration not stated)
i | -0.24 | CCOC(=O)N/N=C\c1ccc(-c2cc(Cl)ccc2Cl)o1
i | 1.2 | COc1ccc(CNC(=O)C2CCCN(S(=O)(=O)N3CC(C)CC(C)C3)C2)c(OC)c1 (configuration not stated)
i | 0.15 | COC(=O)c1sccc1NC(=S)N1CCCCC1
i | 1.2 | COC(=O)[C@@]12CCCCN1[C@H](c1ccc(-c3cccc(Cl)c3)c(OC)c1)[C@@H]1C(=O)N(C)C(=O)[C@@H]12
i | 0.67 | CCCCc1nc2sc3c(=O)n(N)cnc3c2c2c1CCCC2
i | 2.7 | Fc1ccccc1/C=N/Nc1nn[nH]n1
i | -1.3 | O=C(CCCc1c[nH]c2ccccc12)NCc1ccccc1F
i | 0.51 | O=c1cc(O)nc(-c2ccc(Cl)cc2)s1
i | 0.23 | CC(O)CNCc1ccc(Cl)cc1Cl (configuration not stated)
i | -0.19 | COc1ccc(CNC(=O)C(=O)NCCC2CCCCN2S(=O)(=O)c2ccc(C)cc2)cc1 (configuration not stated)
i | 0.21 | CCc1ccc(OCC(=O)N2CCN=C2c2ccccc2)cc1
i | 0.67 | COC(=O)c1c(N)sc(C(=O)NCCc2ccccc2)c1C
i | 0.19 | Cc1ccc(-n2c(C)cc(/C=C3/C(=N)N4C(c5ccccc5)=CSC4=NC3=O)c2C)cc1
i | -1.5 | N#CC(C#N)=CC1=C2OC(c3ccccc3)=CC(c3ccccc3)=C2CCC1
i | 0.06 | COc1ccc(S(=O)(=O)NNC(=O)c2cccs2)cc1
i | 0.45 | CC(=O)NNc1nc(-c2ccc(C)cc2)cs1
i | -0.61 | COc1cc(NC(=O)CCCc2c[nH]c3ccccc23)cc(OC)c1
i | 0.08 | COc1ccc(OC)c(CNC(=O)CCN2C(=O)COc3ccccc32)c1
i | 0.45 | COc1cccc(N/C=C/C(=O)c2ccc(C)cc2)c1
-5.7* | -0.21* | Cc1onc(-c2ccccc2)c1C(=O)NCCc1c[nH]c2ccccc12

Sorted by the number under KCNQ2 block baseline (highest first): six from the list above
KCNQ2 block | KCNQ2 block baseline | mol
i | 1.9 | CCOC(=O)C(NCCOC)(NC(C)=O)C(F)(F)F (configuration not stated)
i | 0.92 | COc1ccc(N2CCN(CCNC(=O)C3CC(=O)N(C4CCCC4)C3)CC2)cc1 (configuration not stated)
i | 0.74 | COc1ccc(C(=O)NCC(=O)OCC(=O)Nc2c(C)n(C)n(-c3ccccc3)c2=O)cc1
i | -0.05 | Cc1cccc(-n2c(O)c(C=NC3CCS(=O)(=O)C3)c3ccccc3c2=O)c1C (configuration not stated)
i | -0.12 | COc1ccc(-c2cc(C(=O)N(C)Cc3ccccc3)no2)cc1OC
i | -0.84 | CN(NS(=O)(=O)c1ccccc1)c1nc2ccccc2nc1C(F)(F)F

Only part of the results is shown; rates above refer to the full screens.
